Assay outcomes (PubChem BioAssay)
D2 PAM: positive allosteric modulators of human D2 dopamine receptor; P14416; DiscoveRx D2 beta-arrestin cells, luminescence, 90 min; 100% = 57 uM dopamine signal; potentiation, % (no concentration beside the values); 360,000 compounds, 0.23% hits; active = potentiation of 50% or more; inconclusive = 30% to 50%; inactive = 30% or less;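 further: compound concentration not given in the record; tested on top of an EC20 dose of dopamine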
Target sequence (P14416 whole entry, looked up): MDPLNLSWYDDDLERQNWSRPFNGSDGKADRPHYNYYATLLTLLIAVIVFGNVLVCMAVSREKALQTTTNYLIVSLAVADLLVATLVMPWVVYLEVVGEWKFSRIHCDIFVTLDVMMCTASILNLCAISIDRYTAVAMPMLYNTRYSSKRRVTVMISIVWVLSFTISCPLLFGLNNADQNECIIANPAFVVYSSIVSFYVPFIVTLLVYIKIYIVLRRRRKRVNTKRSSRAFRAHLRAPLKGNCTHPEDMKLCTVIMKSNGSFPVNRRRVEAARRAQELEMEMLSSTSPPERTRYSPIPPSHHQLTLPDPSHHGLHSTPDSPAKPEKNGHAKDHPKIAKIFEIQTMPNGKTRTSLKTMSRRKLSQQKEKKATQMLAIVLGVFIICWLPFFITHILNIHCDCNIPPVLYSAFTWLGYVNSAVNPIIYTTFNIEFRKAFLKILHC
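D2 cells co-treated with compound plus 50 nM dopamine (EC20) for 90 min at 37 deg C to detect potentiation. Beta-arrestin recruitment was read as enzyme-fragment luminescence after 1 h at ambient temperature. Full response was set by 57 uM dopamine.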
CtBP-E1A inh: CtBP/E1A binding inhibition. AlphaScreen GST-E1A/His-CtBP binding, 1536-well; hits give low values; control for the full effect not named in the record. activity change, % (test concentration not listed). 340,000 compounds, 0.49% hits; in the data active means activity change below about -65%; inconclusive means about -30% to -65%; inactive means above about -30%; further: on the % scale 0 is the no-effect control and ±100 the full control effect
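GST-E1A and His-tagged CtBP (125 nM each as 5X stock) were preincubated with pin-transferred compound for 2 h at 37 °C in the dark, then glutathione donor and nickel acceptor beads were added for 1 h before AlphaScreen reading.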
TRPV1 PAM: potentiators of human vanilloid receptor 1 (TRPV1). Q8NER1. TRPV1-expressing cells, Fluo-8 calcium influx, capsaicin EC20 potentiation; host cell line not named in the record; control for the full effect not named in the record. potentiation, % at 8.33 µM. 320,000 compounds, 0.02% hits; active means potentiation above 80%; inconclusive means 30% to 80%; inactive means below 30%; further: 0% is about no effect
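Cells expressing TRPV1 were dye-loaded with Fluo-8 and read kinetically: 10 s baseline, 3 min after compound (agonist portion), then 2 min after EC20 capsaicin (allosteric enhancer portion). Calcium-bound dye fluorescence at 480/520 nm.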
Sfp PPTase inh: blocks B. subtilis Sfp PPTase activity; 310,000 compounds, 3.5% hits; Biochemical Sfp PPTase activity, qHTS; Potency, µM, for the others: max response, negative = inhibition, hits mostly inhibitors; AID 1490; active means well fitted inhibition curve with a large enough effect; inconclusive means small, poorly fitted or top-dose-only effect, or another doubt; inactive means no such curve, though single readings can be large or run the other way;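 further: the enzyme is Sfp with the accession as filed and its product quenches rhodamine fluorescence; potency means the concentration at half of the fitted maximal effect; 0% = enzyme reaction without inhibitor and -100% = no enzyme wells; top concentration of the series not given in the record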
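Fluorescence-quenching assay: 15 nM Sfp-PPTase preincubated 15 min at room temperature with compound, then 5 uM rhodamine-CoA and 12.5 uM BHQ-2-labelled YbbR peptide added. Fluorescence (ex 525/em 598 nm) read at start and after 30 min; difference gives rate.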
Six1-Eya2 inh: inhibitors of human Six1/Eya2 interaction | AlphaScreen GST-Six1/His-Eya2 binding, biochemical; hits give low values; control for the full effect not named in the record | 360,000 compounds, 0.56% hits | Q15475+O00167 | AID 651725 | activity change, % (test concentration not listed); in the data active = activity change below about -65%; inconclusive = about -30% to -65%; inactive = above about -30%; further: on the % scale 0 is the no-effect control and ±100 the full control effect
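Six1/Eya2 binding was read as AlphaScreen signal after compounds were pinned into GST-Six1 plus His-tagged Eya2 (5X stock 250/500 nM) in pH 8.0 Tris/NaCl/TCEP buffer, beads added, then incubated 1 h, 37 C, dark.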
PINK1 modulator: changes PINK1 expression. AID 624263. Potency, µM (series often up to 76.6 µM), for inactives: top-dose activation (PINK1 increase), usual class: activators. 410,000 compounds, 0.2% hits. PINK1 immunofluorescence, high-content cytometry, 24 h; active = well fitted activation curve with a large enough effect; inconclusive = small, poorly fitted or top-dose-only effect; inactive = flat fitted curve, though single readings scatter; cell line not stated here;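 further: potency means the concentration at half of the fitted maximal effect; % of control where 0% means no effect; nearly all actives have a fitted effect of over 65% in size; a mitochondrial uncoupler was the plate control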
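Compound titrations (5 concentrations, 24 h) on a stable cell line; DMSO and CCCP controls. Endpoint: fixed-cell PINK1 immunofluorescence with mitochondrial, cell and nuclear markers, scanned by microplate cytometer.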
D2 agonist: activates the human D2 dopamine receptor | DiscoveRx PathHunter D2 beta-arrestin, luminescence, 90 min; 100% = 57 uM dopamine signal | 360,000 compounds, 0.084% hits | P14416 | AID 624465 | activation, % (no concentration beside the values); in the data active = activation above about 40%; inconclusive = about 15% to 40%; inactive = below about 15%; further: compound concentration not given in the record; the text of the record calls up to 30% inactive
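Agonist mode: compounds alone added to overnight-plated D2 PathHunter cells for 90 min at 37 C, with 57 uM final dopamine (EC100) defining full response. Beta-arrestin recruitment detected by chemiluminescent reagent, read after 1 h at ambient temperature.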
The depositor's hits bear a star; ? = inconclusive; nt = no result given; [ ] = dose if it differs, or a comment.

Order of values: D2 PAM	CtBP-E1A inh	TRPV1 PAM	Sfp PPTase inh	Six1-Eya2 inh	PINK1 modulator	D2 agonist
O=C(Cc1nnc(NC(=O)c2cccc([N+](=O)[O-])c2)s1)NCc1ccccc1
    -3	0	1	3%	6	0.8%	-2.0
CC1(Cc2cc(Cl)ccc2C(F)(F)F)C(=O)Nc2c(Cl)cccc21 (stereo not drawn)
    -12	2	nt	nt	-1	?	-3.0
CNC(=S)N1CCC(n2cnc3ccccc32)CC1
    -8	6	-21	-5%	9	0.2%	-4.7
CC(=O)c1ccc(N2CCN(CN3C(=O)CC4(CCCC4)C3=O)CC2)c(F)c1
    -7	3	23	10%	7	-2.2%	3.9
O=C(c1cc2ccccc2o1)N1CCN(S(=O)(=O)c2ccc(Cl)s2)CC1
    -13	3	-16	nt	-9	1.1%	-3.0
CC(C)(C)NC(=O)C(=O)NNC(=O)c1ccccc1
    1	9	3	-7%	4	1.0%	1.7
CCN(CC)C(=O)c1ncn(Cc2ccccc2)c1C(=O)N(CC)CC
    -8	5	-6	nt	4	-0.9%	-1.4
Cc1nc2c(O)cccc2cc1CO
    ?	nt	-16	71µM*	-6	-0.5%	3.6
Cc1cc(=O)c(C(=O)Nc2ccc(N3CCOCC3)cc2N2CCOCC2)nn1-c1ccccc1Cl
    -16	9	nt	nt	0	5.3%	-3.0
Cc1ccc(CN2CCN(CC(=O)N/N=C/c3ccccc3F)CC2)cc1
    -14	nt	-4	11%	1	-0.6%	-6.0
C=CCNC(=S)Nc1cccc2[nH]ncc12
    3	-13	1	11%	-16	1.3%	-1.8
COc1ccccc1NC(=O)CSc1nc(=O)n2cc(C)ccc2n1
    2	3	-14	nt	0	-1.6%	-2.2
CN1C(=O)C(CC(N)=O)N(NC(=O)c2ccc(Cl)cc2)C1=S (stereo not drawn)
    -3	-1	21	10%	2	0.3%[38.3 µM]	-2.3
Cc1ccc(NS(=O)(=O)c2c(C)[nH]c(C)c2C(=O)N2CCCCC2)cc1F
    -3	1	?	5%	2	-0.1%	1.0
N#CCC(=O)Nc1ccc(C(=O)N2CCN(c3ccccn3)CC2)cc1
    -2	3	4	27%	-6	-0.3%	-0.2
O=C(NCc1ccccc1)C1CCC(CNS(=O)(=O)c2cccs2)CC1 (stereo not drawn)
    5	6	2	-1%	0	1.3%	2.2
Cc1cccc(N=Nc2c(C)nn(-c3ccccc3)c2N)c1C
    -28	?	-11	-7%	?	3.0%	-2.2
CCc1cccc(OCCOCCN2CCCC2)c1
    -34	3	2	-4%	3	1.2%	-3.5
COc1cc(NC(=O)C2CSC3(C)CCC(=O)N23)c(OC)cc1Cl (stereo not drawn)
    13	-3	4	nt	-8	2.6%	-1.4
C[C@H](CO)N1C[C@H](C)[C@@H](CN(C)S(=O)(=O)c2cccs2)Oc2c(NC(=O)CCC(F)(F)F)cccc2C1=O
    -4	10	nt	nt	0	1.2%	-1.1

Overlap with the part before: two entries, followed by the next part.
Order of values: D2 PAM	CtBP-E1A inh	TRPV1 PAM	Sfp PPTase inh	Six1-Eya2 inh	PINK1 modulator	D2 agonist
COc1cc(NC(=O)C2CSC3(C)CCC(=O)N23)c(OC)cc1Cl (stereo not drawn)
    13	-3	4	nt	-8	2.6%	-1.4
C[C@H](CO)N1C[C@H](C)[C@@H](CN(C)S(=O)(=O)c2cccs2)Oc2c(NC(=O)CCC(F)(F)F)cccc2C1=O
    -4	10	nt	nt	0	1.2%	-1.1
Cc1nc2c(=O)n(-c3ccc(F)c(Cl)c3)nc(C)c2s1
    -11	-7	-18	-3%	2	-1.1%	-7.6
CCC[C@@H](CN1CCC[C@H]1CN1C(N)=NC[C@@H]1Cc1ccccc1)N1C[C@@H](Cc2ccccc2)N(CCCC2CCCC2)C1=N
    -29	-10	nt	nt	5	1.2%	-3.0
CCN(CC(=O)Nc1c(F)cccc1F)C(=O)c1cccn1C
    -7	1	nt	nt	0	-0.5%	-4.0
COc1ccc(-c2cc(=O)c3ccccc3s2)cc1
    3	7	-7	?	-2	nt	0.9
COc1ccccc1N(CC(=O)Nc1ccc2c(c1)OCO2)S(=O)(=O)c1ccccc1
    -1	-10	-16	-5%	-12	11%	-1.6
CCc1ccc(-n2nnnc2SCC(=O)NNC(=O)c2ccco2)cc1
    -3	9	1	-3%	0	-3.5%[38.3 µM]	0.3
CCOc1ccc(N2C(=O)CSC2=S)cc1
    7	nt	1	17%	-2	2.9%	-0.8
Cn1c(NC(=O)c2ccc(Cl)cc2)cc(=O)n(C)c1=O
    -2	1	?	0%	1	6.2%	-1.2
CCOc1cc(N2CCOCC2)c(OCC)cc1NC(=O)CN1CCC(Cc2ccccc2)CC1
    -5	-27	0	-5%	-10	0.9%	-1.3
Cc1ccc(-n2c(=O)c3sccc3n(CC(=O)NC3CCCC3)c2=O)cc1
    -5	-7	26	11%	3	8.6%	-6.2
CCOc1cc(C(=O)Nc2cc(C)ccc2C)ccc1OCC(=O)N1CCCCC1
    -18	-17	7	-1%	3	4.4%	-0.7
CCOC(=O)c1ccc(S(=O)(=O)N2CCN(C)CC2)cc1
    5	-8	17	-3%	-5	nt	-1.7
COc1ccc(NC(=O)CSCc2ccc(C)cc2)cc1
    -9	0	-6	21%	3	-0.9%	-3.4
Cc1c(NC(=O)COC(=O)CCc2c[nH]c3ccccc23)c(=O)n(-c2ccccc2)n1C
    -2	2	-6	9%	3	1.0%	-1.3
CCCCNCC1CCCO1 (stereo not drawn)
    -7	-6	0	12%	-1	0.1%	-2.6
O=C(CCCCCCCC(=O)N1CCCC1)N1CCCC1
    -4	2	nt	nt	11	1.0%	-2.0
Cc1ccc(C)c(NC(=O)COC(=O)c2c(C)nn(-c3ccccc3)c2C)c1
    1	5	7	nt	2	2.0%	0.5
O=C(COc1ccc(S(=O)(=O)NC2CCCCC2)cc1)NC1CCCCC1
    -8	5	10	-8%	14	-0.8%	2.8
N/C(=N\OC(=O)c1ccccc1Cl)c1cccc([N+](=O)[O-])c1
    25	nt	1	9%	7	2.0%	60*
CCOC(=O)c1cnc2ccc(OCC)cc2c1NCc1ccccc1
    -7	37	1	32µM*	46	?	-6.2
CCCOc1ccc2c3c(c(=O)oc2c1OCCC)CCCC3
    -6	6	-22	-29%	25	2.7%	-1.8
CC(Nc1ccc(Br)cn1)c1cc(Cl)ccc1O (stereo not drawn)
    ?	0	15	9%	1	?	1.0
Cc1ccc2c(c1)N(CC(=O)Nc1ccccc1F)C(=O)CO2
    0	2	-5	4%	1	4.7%	-5.7
O=C(CNC(=O)c1cccc(F)c1)NC1CC1
    10	-4	nt	nt	12	-1.1%	1.2
Oc1ccc(N=Nc2ccc3c(c2)OCCO3)c(O)c1
    -13	-5	-16	10%	-21	0.1%	-13
OCc1cccc[n+]1Cc1ccccc1
    8	9	nt	nt	2	4.4%	1.6
CCCN(c1nc(C)cc(OC)n1)S(=O)(=O)c1ccccc1
    -17	7	-21	-2%	13	0.8%[38.3 µM]	-1.3
CC(C)NC(=O)Cn1nc(C(F)(F)F)c2c1CCC2
    -14	0	5	-5%	25	-0.4%	-4.0
CC[C@H]1C(=O)[C@@H](Cc2ccccc2)[C@@H]2CCN3C(=O)CCC[C@H]1[C@H]23
    8	1	nt	nt	8	-0.9%	3.0
CC(C)c1ccc(NC(=O)C2C3C=CC4(O3)C2C(=O)N(CCCN2CCOCC2)C4C(=O)NC2CCCCC2)cc1 (stereo not drawn)
    -9	0	16	-3%	0	-0.1%	-4.8
CCN1CCN(c2ncc3c(n2)CC(c2ccc(OC)c(OC)c2)CC3=O)CC1 (stereo not drawn)
    -31	-2	8	0%	-2	?	-3.2
Cc1ccccc1NC(=O)Cc1nc(COC(=O)c2cccnc2Cl)cs1
    -2	2	0	nt	-4	-0.6%	-3.8
O=C(COc1ccc(Cl)cc1Cl)N1CCNC1=O
    7	nt	19	nt	3	-0.8%	-1.6
C#Cc1cccc(Nc2nc(NC(C)C)nc3ccsc23)c1
    -17	-3	nt	nt	-2	20%	4.6
Cc1ccc(NC(=O)C(C)Sc2nc(-c3ccccc3)cc(=O)[nH]2)cc1 (stereo not drawn)
    -7	6	11	-14%	0	0.9%	-2.7
NNc1nc(Nc2ccc([N+](=O)[O-])cc2)nc(N2CCCCCC2)n1
    -36	nt	-14	12%	0	3.2%	-2.2
O=S(=O)(c1ccccc1)N1CCN(Cc2ccc(Cl)cc2)CC1
    1	7	0	12%	-1	2.5%	2.5
O=C(Cn1cnc([N+](=O)[O-])c1)Nc1ccccc1C(F)(F)F
    -3	3	-18	2%	8	3.1%	-1.1
CCOc1ccc(N(CC)C(=O)COc2cc(=O)n(C)c3ccccc23)cc1
    5	0	-8	3%	1	-2.2%	1.8
CCCN1CNC(=S)N(c2ccc(C(=O)OCC)cc2)C1
    3	-12	-2	21%	3	-1.0%	-2.7
CC(Oc1ccccc1)c1nnc(SCC(=O)NC2CC2)n1C (stereo not drawn)
    -3	2	10	17%	-5	0.1%	-4.5
CC(=O)Nc1ccc(OC(=O)Oc2ccc(NC(C)=O)cc2)cc1
    ?	nt	-5	15%	-6	0.5%	1.1
CC(C)OC(=O)c1c(NS(=O)(=O)c2ccccc2)sc2c1CCCC2
    -1	-2	2	-15%	0	-0.9%	-2.3
Nc1c(Br)cc2c([nH]c(=O)c3ccccc32)c1Br
    -9	6	nt	nt	?	-5.2%	1.9
CCOC(=O)C/C(N)=N/N(C)c1ncc(C(F)(F)F)cc1Cl
    1	nt	6	-2%	0	0.2%	1.0
Cc1ccc(NC(=O)CSc2nc3c(c(=O)[nH]2)CN(Cc2ccc(F)cc2)CC3)cc1C
    -18	14	9	-4%	-12	3.2%	-3.1
Nc1ccc2c(c1)C(=NO)c1ccccc1-2
    -9	?	nt	nt	-22	-0.3%	0.9
CC(C)(C)c1ccc(S(=O)(=O)NCC(=O)Nc2ccc(-c3nc4ccccc4s3)cc2)cc1
    4	0	3	7%	10	-1.1%	-0.7
O=C(O)C[C@H]1c2cc(F)ccc2S(=O)(=O)N1C1CCN(Cc2ccccc2)CC1
    -28	5	nt	nt	2	-0.1%	-0.8
Cc1ccc(S(=O)(=O)N/N=C(\c2ccccc2)C2CC2)cc1
    -11	7	10	13%	11	-0.7%	-5.2
